# Screening results (PubChem)
# HSD17B inh: inhibitors of human HSD17B10 dehydrogenase; 7.6% of 75,000 active; Potency, µM (series often up to 57.1 µM), inactives show top-dose activity change, negative = inhibition, hits mostly inhibitors; recombinant HSD17B10, NADH fluorescence kinetic; many of its hits are not listed in these tables; active = well fitted inhibition curve with a large enough effect; inconclusive = small, poorly fitted or top-dose-only effect; inactive = no such curve, though single readings can be large or run the other way;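 note: the protocol describes HADH2 (HSD17B10) and not the HSD17B4 of the title; nearly all actives have a fitted effect of over 70% in size; most hits overshoot -100% by far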
#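 Activity followed as NADH fluorescence increase (ex 360, em 450 nm) every 30 seconds for 4 min, using final 90 uM beta-hydroxybutyryl CoA and 1 mM NAD+. Recombinant His-tagged enzyme, 20 nM, pH 9.0 Tris buffer, 15 min compound preincubation.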
# * marks the source's active call; other numbers are inactive results; ? = inconclusive; & = joins results of further samples; [ ] = another dose, or the depositor's remark. % is set by controls: 0 for no effect and ±100 for the full control effect; potency is the fitted concentration of half-maximal effect.
Structure,HSD17B inh
Cc1ccc(C2CC(c3ccco3)n3nc(N)nc3N2)cc1 (stereo not drawn),-11.0%
COC(=O)c1ccccc1NC(=O)C(CCS(C)(=O)=O)NC(C)=O (stereo not drawn),?
C/C(N)=C(/C#N)C(=O)CSc1nc2cc(Cl)ccc2s1,-27.1%
COc1ccc(CN(CCCN2CCOCC2)C(=O)Nc2ccccc2)cc1OC,9.8%
COc1cc(C2c3c(oc4cc(C)c(C)cc4c3=O)C(=O)N2c2cc(C)ccn2)ccc1O (stereo not drawn),-5.2%
COCC(=O)N(Cc1cc2ccccc2[nH]c1=O)c1ccccc1OC,?
COc1ccc(C(=O)c2oc3ccc(OC)cc3c2N)cc1,?
COC(=O)c1c(-c2cc(OC)c(OC)c(OC)c2)c2ccnc(OCc3ncccn3)c2c(=O)n1Cc1ccnc(C)c1,-5.0%&-8.0%
CCN(CC)Cc1csc(C(N)=O)c1,0.7%
CCOc1ccccc1NC(=O)CCc1ccc(C)o1,-3.2%
CCCn1c(N2CCC(Cc3ccccc3)CC2)nc2c1c(=O)[nH]c(=O)n2C,-6.6%
Cc1ccc(Cn2c(SCCN3CCCCC3)nc3c2c(=O)n(C)c(=O)n3C)cc1,1.8%
Cc1cc(=O)[nH]c(/N=C(\N)Nc2cccc3ccccc23)n1,-7.9%
CCOc1ccc2nc(NC(=O)C3CCN(c4cnccn4)CC3)sc2c1,?
O=C(c1cc2cc(Cl)ccc2oc1=O)N1CCOCC1,-25.3%
NC(=O)C1=CN([C@@H]2O[C@@H](COP(=O)(O)OP(=O)(O)OC[C@@H]3O[C@H](n4cnc5c(N)ncnc54)[C@@H](OP(=O)(O)O)[C@@H]3O)[C@H](O)[C@@H]2O)C=CC1,3.8%
O=C(NCCCn1ccnc1)C1c2ccccc2Oc2ccccc21,-2.5%
Cc1cc(-c2nnc3n2N=C(c2ccc(-c4ccccc4)cc2)CS3)n[nH]1,-29.6%
CC(C)COc1ccc(C(=O)N(Cc2ccco2)C2CCS(=O)(=O)C2)cc1 (stereo not drawn),25.1µM*
COc1ccccc1-c1n[nH]c(=S)o1,?
CCOC(=O)c1c(C2COc3ccccc3O2)csc1NC(=O)c1ccco1 (stereo not drawn),5.01µM*
COC(=O)Nc1ccc(S(=O)(=O)N2c3ccccc3CCC2C)cc1 (stereo not drawn),-9.1%
CN(C)c1ccc(-c2cncnc2NCCc2cnc[nH]2)cc1,0.6%
Cn1nc(C(=O)Nc2ccc(S(=O)(=O)N3CCCC3)cc2)ccc1=O,-4.6%
O=C(Nc1ccccc1)N(CCN1CCOCC1)Cc1ccccc1F,7.1%

# (list continues)
Structure,HSD17B inh
Cc1ccc(CNc2ccc3c(c2)OCO3)c(C)c1,-4.2%
CCS(=O)(=O)N1CCCC(C(=O)NCC2CCCO2)C1 (stereo not drawn),6.6%
Cc1cc(C)c2cc(CN(CCO)C(=O)Nc3ccc(F)cc3)c(=O)[nH]c2c1,?
O=c1cc[nH]c(=S)[nH]1,-2.2%
O=S(=O)(NCCc1ccncc1)c1cc(Br)ccc1F,-0.5%
Cc1cc(C(C#N)c2ccccc2)n2ncnc2n1 (stereo not drawn),-0.2%
c1ncc(CC2CCNCC2)[nH]1,10.9%
Cc1ccc2nc(-c3ccc(NC(=O)CN4CCN(C(=O)c5ccco5)CC4)cc3)sc2c1,12.6µM*
CC1CN(Cc2cc(=O)n3ccsc3n2)CC(C)O1 (stereo not drawn),108.3%[activator]
COc1cc(-c2nnc3sc(Cc4ccc(Cl)cc4)nn23)cc(OC)c1OC,-22.8%
O=S(=O)(c1ccccc1)N1CCN(S(=O)(=O)c2ccccc2)C1,1.9%
O=C(Nc1nc2c(s1)CCCC2)c1cccnc1,-11.1%
CN1CCN(C2=C(Cl)C(=O)N(CCc3ccccc3)C2=O)CC1,2.0%
COC(=O)c1nc2n(n1)C(c1ccc(OC)c(OC)c1)C(C(=O)OC1CCCCC1)=C(C)N2 (stereo not drawn),0.6%
O=C(c1cccnc1)N(Cc1ccccc1)c1ccccc1,9.1%
COc1ccc(C2CC(c3ccccc3)Nc3nc(NC(=O)c4ccco4)nn32)cc1 (stereo not drawn),-1.0%
COc1cccc(NC(=O)CN(c2cccc(F)c2)S(C)(=O)=O)c1,-10.4%
O=c1onc2cnc3ccccc3n12,31.6µM*
Cc1ccnc(NC(=O)CCCOc2cc(=O)n(C)c3ccccc23)c1,-4.2%
CCOCCCNC(=O)CC1Oc2ccc(C)cc2NC1=O (stereo not drawn),5.0%
COC(=O)[C@@]1(Cc2ccc(F)cc2)[C@H]2c3cc(C(=O)N(C)C)n(CCO)c3C[C@H]2CN1C(=O)c1ccccc1,-14.6%
Cc1n[nH]c(C)c1S(=O)(=O)Nc1ccc2c(c1)OCCO2,12.3%
O=C(Cn1c(=O)n(CCCC(=O)NC2CCCC2)c(=O)c2ccccc21)NCCC1=CCCCC1,7.3%
COc1cccc(-n2nnc3c(=O)n(Cc4ccc(Br)cc4)cnc32)c1,-25.7%
COC(=O)c1cc2oc3ccccc3c2n1Cc1ccccn1,?

# Molecules shown so far that have a cyano group (2):
Structure,HSD17B inh
C/C(N)=C(/C#N)C(=O)CSc1nc2cc(Cl)ccc2s1,-27.1%
Cc1cc(C(C#N)c2ccccc2)n2ncnc2n1 (stereo not drawn),-0.2%

# (more compounds)
Structure,HSD17B inh
Cc1cc(NS(=O)(=O)c2cccs2)no1,0.9%
CCOc1ccccc1-n1c(SCC(=O)N2CCOCC2)nnc1-c1ccccn1,-4.8%
CCOc1cccc(C2c3c(oc4ccccc4c3=O)C(=O)N2c2ccccn2)c1 (stereo not drawn),12.1%
CCOc1cc(S(=O)(=O)NC2CCCCCC2)ccc1F,-4.7%
O=C1NC2NC(=O)N(C(Cc3ccccc3)C(=O)O)C2N1 (stereo not drawn),8.0%
COc1cc(OC)cc(-n2c3nc4ccccc4nc3c3c(=O)n(CC4CCCO4)cnc32)c1 (stereo not drawn),-25.8%
CO[C@@H]1COC(=O)[C@H]2CCCN2C(=O)[C@@H](C)COC(=O)CCC[C@H]1C,0.3%[11.4 µM]
Clc1ccc(OCCn2cnc3ccccc32)cc1,2.4%
Cn1c(/N=C/c2cccs2)nc2ccccc21,14.1%
COc1ccc2[nH]cc(CCNc3cc(-c4cccc(C#N)c4)ncn3)c2c1,8.1%
O=C1c2cccc([N+](=O)[O-])c2C(=O)N1c1ncn[nH]1,6.1%[11.4 µM]
COC(=O)C1=C(C)NC(C)=C([N+](=O)[O-])[C@@H]1c1ccccc1C(F)(F)F,-11.2%
CC1(C(=O)NC2CCCCCCC2)CCC(=O)N1Cc1ccco1 (stereo not drawn),-10.0%
CCc1ccccc1NC1=NCC(=O)N1Cc1ccc2c(c1)OCO2,3.0%
CCOC(=O)COc1ccc(C(=O)c2ccccc2)c(O)c1,5.4%
COc1ccc2[nH]cc(CCNc3ncncc3-c3ccccc3Cl)c2c1,0.6%
O=C(CSc1nc2sc3c(c2c(=O)[nH]1)CCCC3)NCCO,-1.3%
Cc1nn(-c2ccccc2)c(C)c1/C=N/N1CCN(Cc2ccccc2)CC1,7.2%
O=C(CN1C(=O)NC2(CCCCCCC2)C1=O)NC(=O)NCc1ccco1,-8.4%
O=C(c1ccncc1)c1ccc(N2CCN(C3CC(=O)N(Cc4ccccc4)C3=O)CC2)cc1 (stereo not drawn),?
O=C(CCCCn1c(=O)c2ccccc2n(CC(=O)Nc2ccccc2)c1=O)NCc1ccco1,5.2%
FC(F)(F)c1nnc2sc(-c3cccs3)nn12,-20.0%
CCn1nc(NC(=O)c2ccncc2)c2cc3cc(C)ccc3nc21,4.1%
NC(=O)Nc1ccc(Oc2c(F)c(F)c(F)c(F)c2F)cc1,?
O=c1[nH]c2cc3c(cc2cc1C(c1nnnn1CC1CCCO1)N1CCCC1)OCO3 (stereo not drawn),55.1%[activator]

# Continued:
Structure,HSD17B inh
COCCCn1c(C(C)C)nc2oc3cc(OC)ccc3c(=O)c2c1=O,-9.7%
O=C(c1n[nH]c2ccccc12)N1CCN(S(=O)(=O)c2ccc3ccccc3c2)CC1,-2.2%
CC(=O)Nc1c(C)cc(OCC(=O)O)cc1C,-5.8%[11.4 µM]
CCC1=C2CC[C@H]3C(=O)N(C)C(=O)[C@H]3[C@H]2[C@@]2(Cc3ccccc3)C(=NCC3CC3)OC(=O)N2C1=O,-1.1%
CC1Cc2ccccc2N1C(=O)CSc1nnc(NC(=O)Cc2cccs2)s1 (stereo not drawn),-3.7%
COc1cccc(C(c2nnnn2C(C)(C)C)N2CCN(C3CCCCC3)CC2)c1OC (stereo not drawn),-1.9%
COc1ccc(Cl)cc1N=Nc1ncc[nH]1,-8.0%
CC(NC(=O)C(c1ccccc1)c1ccccc1)C(=O)O (stereo not drawn),-1.0%
O=C(NC1CCCC1)c1ccc2nc[nH]c2c1,0.0%
Cc1c(C(C)NC(=O)Nc2ccc(F)cc2F)cnn1C (stereo not drawn),6.5%
c1ccc2c(c1)nnn1c3ccccc3nc21,0.9%
O=C(NCCc1c[nH]c2ccccc12)C1Cc2ccccc2CN1C(=O)c1ccco1 (stereo not drawn),5.3%
CCC(C)(C)NC(=O)CN(C(=O)CNS(=O)(=O)c1ccc(C)cc1)c1ccc2c(c1)OCCO2,-2.8%
C=CCn1c(O)c(CN2CCN(Cc3ccccc3)CC2)c(C)c(C#N)c1=O,?
Cn1c(=O)c2c(nc(N3CCN(Cc4ccccc4)CC3)n2CCSc2ncccn2)n(C)c1=O,?
CN(C)CCCNc1c2c(c(C#N)c3nc4ccccc4n13)CCC2,?
COC(=O)[C@@H]1C[C@@]2(O)[C@@H](O)[C@@H](O)[C@@H](O)C[C@H]2N1Cc1cc(F)ccc1F,0.5%
O=C(c1ccccc1)c1ccc(C(=O)O)c(C(=O)O)c1,0.5%
CCn1cc(C(=O)NCc2ccco2)c(=O)c2cc(S(=O)(=O)N3CC(C)CC(C)C3)ccc21 (stereo not drawn),-4.5%
Cc1ccc(NC(=O)C(C)N2C(=O)c3ccccc3C2=O)cc1 (stereo not drawn),9.9%
CSc1nnc2n(CCc3ccccc3)c(=O)c3c4c(sc3n12)CCCC4,4.8%
NC(=O)CN(c1ccccc1)C1SC(=O)N(Cc2ccccc2)C1=O (stereo not drawn),-12.5%
Cc1csc(=N)n1CC(=O)N1CCc2ccccc21,-2.5%
CC(=O)Oc1cc2c(C(=O)NCCCN3CCOCC3)c(C)oc2c2ccccc12,-21.8%
CCc1cccc(Nc2cc(C)nc3ncnn23)c1,3.6%

# Following part.
Structure,HSD17B inh
O=C(O)CCC(=O)Nc1ccc(S(=O)(=O)Nc2nccs2)cc1,-6.3%
N#Cc1ccc(NC(=O)C2CC(c3ccc(F)cc3)=NO2)cc1 (stereo not drawn),4.8%
O=C(NC1CCN(C(=O)N2CCOCC2)CC1)c1ccccc1,-0.9%
COc1ccccc1N1CCSC1C(N)=O (stereo not drawn),3.5%
CC(C)C(=O)N1CCN(c2ccccc2N)CC1,3.8%
COc1ccc(NC(=O)NC2(C(=O)N3CCCCCC3)CCCCC2)cc1,16.3%
COC(=O)c1c(NS(=O)(=O)c2cccs2)sc2c1CCCC2,?
CCCCN1c2ccccc2N(CCCO)c2cc(C)nnc21,-7.5%
COc1cc2c(cc1OC)C(=O)Cc1ccc3c(c1CN(C)CC2)OCO3,3.7%
CCOc1ccc(OCC)c(S(=O)(=O)N2CCCCC2)c1,-2.3%
COc1ccccc1CN1CCCC2(CCN(C(=O)c3cnccn3)CC2)C1,0.1%
COCCSc1nnc(NC(=O)CSc2ccccc2)s1,-4.4%
CCCCCCCC(=O)O[C@H](CC(=O)O)C[N+](C)(C)C,9.8%
CCOC(=O)C1CCN(C(c2cc3ccc(C)c(C)c3[nH]c2=O)c2nnnn2C2CCCCC2)CC1 (stereo not drawn),0.3%
CS(=O)(=O)N(CC(=O)N1CCN(c2ccccc2F)CC1)c1ccc2c(c1)OCCO2,-0.1%
O=C1c2ccccc2[C@@H]([C@@H]2c3ccccc3C(=O)c3cc(Br)ccc32)c2ccc(Br)cc21,1.2%[11.4 µM]
CN(C)S(=O)(=O)c1ccc2c(c1)C(CC(=O)O)OC2=O (stereo not drawn),9.6%
COc1ccc(C(c2sc3nc(C)nn3c2O)N2CCC(O)CC2)cc1OC (stereo not drawn),-12.3%
CC(C)C1Nc2ccc(S(N)(=O)=O)cc2C2C=CCC21 (stereo not drawn),-28.4%
CC(C)(O)c1cn(-c2nonc2N)nn1,3.3%
Cc1ccc(Cn2nnc3c(=O)n(CC(=O)N4CCCc5ccccc54)cnc32)cc1,-6.1%
COc1cccc(OCC(=O)Nc2c(C(=O)Nc3ccc(OC)cc3OC)oc3ccccc23)c1,?
CCCCOC(=O)c1ccc(O)cc1,3.6%
COc1cc(NC(=O)c2ccc(NS(=O)(=O)c3c(C)noc3C)cc2)cc(OC)c1,0.9%
CCOc1ccccc1NC(=O)c1cc(S(=O)(=O)N2CCC3(CC2)OCCO3)ccc1F,2.0%
Cn1c(=O)oc2cc(S(=O)(=O)Nc3ccc(Cl)cc3F)ccc21,3.0%
O=C1c2ccccc2C(=O)N1CCc1nc2ccccc2c(=O)n1Cc1ccco1,0.2%

# 2 entries from above, set out differently.
Structure: CCOc1ccccc1NC(=O)c1cc(S(=O)(=O)N2CCC3(CC2)OCCO3)ccc1F
- HSD17B inh = 2.0%
Structure: Cn1c(=O)oc2cc(S(=O)(=O)Nc3ccc(Cl)cc3F)ccc21
- HSD17B inh = 3.0%

# Only part of the results is shown; rates above refer to the full screens.
